Compound activity (PubChem BioAssay)
PrP UTR inh – suppresses PrP 5' UTR mRNA reporter expression. cell-based PrP 5' UTR mRNA reporter, plate reader. inhibition, % (concentration not given with the values). actives 0.35% (n = 340,000). AID 488862;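 active means every replicate at 50% or more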;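 further: 0 = median of the neutral control wells; tested in H4 reporter cells; numbers are from one replicate; inactives centre near -14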
ugtP null kill – compounds lethal to S. aureus RN4220 ugtP deletion mutant. OD600 growth, 16 h; some inactives read as strong as hits. growth inhibition, % (no concentration beside the values). actives 0.54% (n = 330,000);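 active means z-score under -3 and OD600 up to 0.15 on both plates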;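 further: plate controls were untreated wells for no effect and antibiotic for full effect; wells of about 80 µL received 100 nL stock; the first replicate is given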
Sa RN4220 lethal – S. aureus RN4220 growth inhibition | OD600, 16 h | inhibition, % (no concentration beside the values) | actives 0.33% (n = 330,000);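 active means z-score of -3 or lower and OD600 up to 0.18 on both plates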;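 further: plate controls were untreated cells for no effect and reference antibiotic for full effect; stock transfer was 100 nL into about 80 µL; one replicate is shown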
BJeLR viability – kills HRASV12-expressing BJeLR cells; BJeLR (HRASV12) viability, CellTiter-Glo ATP luminescence, 48 h; reference of the scale not given here; actives 0.17% (n = 300,000); inhibition, % (test concentration not listed);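 active means replicate mean above 50%; inconclusive means above 50% but judged a plate artefact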;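 further: 50 nL library stock added to about 25 µL; numbers are from one replicate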
Autofluor counter – flagged as autofluorescent in microsphere protease counterscreen; actives 3.1% (n = 360,000); fluorescence intensity (no concentration beside the values); compound autofluorescence counterscreen, microsphere flow cytometry; hits give high values;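 active means at least 3 SD above the mean of all compounds, about 16000 in these data; inconclusive means too few beads counted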;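 further: 100 nL of 1 mM stock went into each well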
Mtb hypoxia rep – Mtb hypoxia fluorescent reporter inhibition; M. tuberculosis hypoxia-regulated fluorescent reporter, fluorescence; fluorescence inhibition, % (no concentration beside the values); actives 0.1% (n = 300,000);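 active means 35 to 45% if threefold the growth effect, above 45% if 1.5-fold the growth effect; inactive means the rest, general growth blockers included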;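 further: wells of about 50 µL received 100 nL stock; 0% = vehicle wells and 100% = reference inhibitor wells; whole bacteria with a GFP reporter of the hypoxia response; strong numbers were not always called active; many hits fall short of the cut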
Mtb hypoxia rep growth – further read-out of Mtb hypoxia rep, marked with its call; growth inhibition, %; measured here: M. tuberculosis growth (absorbance);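 0% = vehicle and 100% = reference antibiotic; read after six days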
* = called active by the depositor; & = joins results of further samples.

For CCC1CCCCN1CCCNC(=O)c1ccc2c(=O)n(Cc3ccc(OC)cc3)c(=O)[nH]c2c1 (configuration not stated) the results were PrP UTR inh -33, ugtP null kill 6, Sa RN4220 lethal 0.3, BJeLR viability -6, Autofluor counter 10523, Mtb hypoxia rep 4 and Mtb hypoxia rep growth 12.
Screening O=C(NC(=S)NNC(=O)c1ccccc1F)c1cccnc1 returned ugtP null kill -4, Sa RN4220 lethal 16, BJeLR viability 13, Autofluor counter 6199, Mtb hypoxia rep -14 and Mtb hypoxia rep growth -15.
Screening CC(=NNC(=O)c1[nH]c2c([N+](=O)[O-])cc(C)cc2c1-c1ccccc1)c1cccnc1 returned ugtP null kill -16, Sa RN4220 lethal 8.8, Mtb hypoxia rep -8 and Mtb hypoxia rep growth -1.
For N/C(=N\OC(=O)c1ccco1)c1cccnc1 the results were PrP UTR inh -46, ugtP null kill 4, Sa RN4220 lethal 4.8, BJeLR viability -6, Autofluor counter 3920, Mtb hypoxia rep 10 and Mtb hypoxia rep growth 1.
Screening Cc1ccc(NC2CCCN(C(=O)CCC(=O)c3ccccc3)C2)cc1C (configuration not stated) returned PrP UTR inh 10, ugtP null kill -8, Sa RN4220 lethal 2.3, BJeLR viability -10, Autofluor counter 5884, Mtb hypoxia rep -5 and Mtb hypoxia rep growth 4.
Screening COc1ccc(/C=N/NC(=O)C2c3ccccc3-c3ccccc32)cc1 returned PrP UTR inh -21, BJeLR viability -2 and Autofluor counter 2450.
O=C(CCN1CCc2ccccc2C1)Nc1ccc(F)c(F)c1 was read as PrP UTR inh 1, ugtP null kill -6, Sa RN4220 lethal -0.8, BJeLR viability 7, Autofluor counter 4911, Mtb hypoxia rep 2 and Mtb hypoxia rep growth 2.
`CCCn1c(SCC(=O)NCc2ccc(Cl)cc2)n[nH]c1=O` gave PrP UTR inh -5, ugtP null kill 0, Sa RN4220 lethal -3.1, BJeLR viability -6, Autofluor counter 3212, Mtb hypoxia rep 1 and Mtb hypoxia rep growth -4.
Screening CC(=O)Nc1ccc(Oc2ccccc2)cc1 returned PrP UTR inh -17, ugtP null kill 3, Sa RN4220 lethal 3.5, BJeLR viability -2, Autofluor counter 5703, Mtb hypoxia rep 6 and Mtb hypoxia rep growth -6.
For CC(=O)NCCCc1nc2ccccc2n1Cc1ccccc1C the results were PrP UTR inh -3, ugtP null kill 3, Sa RN4220 lethal 2.8, BJeLR viability -1, Autofluor counter 24006*, Mtb hypoxia rep 10 and Mtb hypoxia rep growth 7.

An excerpt from above in order of length of the SMILES, lowest first.
For CC(=O)NCCCc1nc2ccccc2n1Cc1ccccc1C the results were PrP UTR inh -3, ugtP null kill 3, Sa RN4220 lethal 2.8, BJeLR viability -1, Autofluor counter 24006*, Mtb hypoxia rep 10 and Mtb hypoxia rep growth 7.
O=C(CCN1CCc2ccccc2C1)Nc1ccc(F)c(F)c1 was read as PrP UTR inh 1, ugtP null kill -6, Sa RN4220 lethal -0.8, BJeLR viability 7, Autofluor counter 4911, Mtb hypoxia rep 2 and Mtb hypoxia rep growth 2.
`CCCn1c(SCC(=O)NCc2ccc(Cl)cc2)n[nH]c1=O` gave PrP UTR inh -5, ugtP null kill 0, Sa RN4220 lethal -3.1, BJeLR viability -6, Autofluor counter 3212, Mtb hypoxia rep 1 and Mtb hypoxia rep growth -4.

Later entries.
Screening O=C(CCN1C(=O)C2C3C=CC(C4CC34)C2C1=O)Oc1ccccc1 (configuration not stated) returned PrP UTR inh -23, ugtP null kill -8, Sa RN4220 lethal -3.5, BJeLR viability -8, Autofluor counter 2281, Mtb hypoxia rep -4 and Mtb hypoxia rep growth 2.
COc1ccc(C(=O)COC(=O)[C@@H](NS(=O)(=O)c2ccccc2)C(C)C)cc1 was read as PrP UTR inh -10, ugtP null kill 8, Sa RN4220 lethal 7.3, Autofluor counter 2850, Mtb hypoxia rep 11 and Mtb hypoxia rep growth 7.
CCn1c2c(c(=N)c3c1CCC3)CCCC2 was read as ugtP null kill 9, Sa RN4220 lethal 3.3, BJeLR viability -28, Autofluor counter 4649, Mtb hypoxia rep 5 and Mtb hypoxia rep growth 3.
`O=C(Nc1oc2ccccc2c(=O)c1-c1ccc(Br)cc1)c1ccco1` gave PrP UTR inh -12, ugtP null kill -18, Sa RN4220 lethal -5.7, BJeLR viability 3, Autofluor counter 5649, Mtb hypoxia rep -5 and Mtb hypoxia rep growth 8.
For COc1cc(CC(NC(C)=O)C(=O)NC2CCN(c3c(Cc4ccccc4)c(C)nc4ncnn34)CC2)cc(OC)c1 (configuration not stated) the results were PrP UTR inh -6, ugtP null kill -1, Sa RN4220 lethal 0.8, BJeLR viability 0, Autofluor counter 10598, Mtb hypoxia rep -3 and Mtb hypoxia rep growth 3.
Screening CC1CN(O)C2CCc3c(no[n+]3[O-])C12O (configuration not stated) returned PrP UTR inh -9, ugtP null kill 3, Sa RN4220 lethal -1.5, BJeLR viability -4, Autofluor counter 9901, Mtb hypoxia rep -3 and Mtb hypoxia rep growth -2.
Screening CC(=O)c1ccc(OC(=O)c2nc(-c3ccccc3)oc2C)cc1 returned PrP UTR inh -27, ugtP null kill 0, Sa RN4220 lethal 0.0, BJeLR viability -3, Autofluor counter 2976, Mtb hypoxia rep 4 and Mtb hypoxia rep growth 8.
Screening CCOC(=O)C1(CCC(C)=NNC(N)=O)CC(C)OC1=O (configuration not stated) returned ugtP null kill 1, Sa RN4220 lethal 6.8, Mtb hypoxia rep 6 and Mtb hypoxia rep growth 1.
Cc1nc2c(cc1NC(=O)c1ccccc1)nc(C)n2Cc1ccccc1 was read as PrP UTR inh -21, ugtP null kill 6, Sa RN4220 lethal 3.1, BJeLR viability -1, Autofluor counter 3842, Mtb hypoxia rep 17 and Mtb hypoxia rep growth 12.
For O=C(NC1CCCCC1)C(c1cccs1)N(C(=O)Cc1c[nH]c2ccccc12)c1ccc(F)cc1 (configuration not stated) the results were PrP UTR inh -5, ugtP null kill 25, Sa RN4220 lethal 4.5, BJeLR viability -4, Autofluor counter inconclusive, Mtb hypoxia rep 3 and Mtb hypoxia rep growth 1.
`c1ccc(Oc2nc(-c3cccnc3)nc3ccccc23)cc1` gave PrP UTR inh -5, ugtP null kill -5, Sa RN4220 lethal 7.2, BJeLR viability -3, Autofluor counter 4191, Mtb hypoxia rep 11 and Mtb hypoxia rep growth 9.
Screening Cc1cc(C)c(NC(=O)c2cccc3c2C(=O)N(C2CCCCC2)C3)c(C)c1 returned PrP UTR inh -21, ugtP null kill -18, Sa RN4220 lethal -6.1, BJeLR viability -7, Autofluor counter 5311, Mtb hypoxia rep 6 and Mtb hypoxia rep growth -6.
`O=C(CSc1nnc(-c2ccncc2)o1)NCc1ccccc1Cl` gave PrP UTR inh -5, BJeLR viability 9 and Autofluor counter 1953.
`CCOC(=O)[C@@H]1[C@H]2COc3cc(OC)ccc3[C@@H]2N2C(=O)N(c3ccccc3)C(=O)[C@@]12C` gave PrP UTR inh -18, ugtP null kill -1, Sa RN4220 lethal -13, Autofluor counter 3525, Mtb hypoxia rep 10 and Mtb hypoxia rep growth 7.
For COc1cc(C)nc(-c2csc(C)n2)n1 the results were PrP UTR inh -2, ugtP null kill -5, Sa RN4220 lethal 1.4, BJeLR viability -11, Autofluor counter 3356, Mtb hypoxia rep -7 and Mtb hypoxia rep growth -6.
For Nc1ccccc1OCP(=O)(c1ccccc1)c1ccccc1 the results were PrP UTR inh -14, ugtP null kill 2, Sa RN4220 lethal 1.0, BJeLR viability 3, Autofluor counter 2501, Mtb hypoxia rep 4 and Mtb hypoxia rep growth 7.
`Nc1c(Br)cc(Br)c(N2CCCC2=O)c1Br` gave PrP UTR inh 1, ugtP null kill -4, Sa RN4220 lethal -12, BJeLR viability 14, Autofluor counter 3024, Mtb hypoxia rep 12 and Mtb hypoxia rep growth 11.
For CC(=O)Nc1ccc(S(=O)(=O)N2C3CCCC2CC(NC(=O)C2CCCCC2)C3)cc1 (configuration not stated) the results were PrP UTR inh -19, ugtP null kill -1, Sa RN4220 lethal 0.8, BJeLR viability -24, Autofluor counter 4113, Mtb hypoxia rep -13 and Mtb hypoxia rep growth -6.
O=C(O)c1cc(C(=O)O)cc(-c2ccc(C=c3sc4nc5ccccc5n4c3=O)o2)c1 was read as ugtP null kill 22, Sa RN4220 lethal -0.5, Mtb hypoxia rep 10 and Mtb hypoxia rep growth 10.
For O=[N+]([O-])c1cccc(OCCN2CCC(Cc3ccccc3)CC2)c1 the results were PrP UTR inh -18, ugtP null kill -2, Sa RN4220 lethal -2.1, BJeLR viability 2, Autofluor counter 5138, Mtb hypoxia rep 19 and Mtb hypoxia rep growth 26.
Screening N#CC(c1ccc(Cl)cc1)(c1ncc(C(F)(F)F)cc1Cl)N1CCOCC1 (configuration not stated) returned ugtP null kill -11, Sa RN4220 lethal 3.4, BJeLR viability -7, Autofluor counter 11662, Mtb hypoxia rep 7 and Mtb hypoxia rep growth 5.
For COC(=O)C1C(O)=C(C=NCC(C)N=CC2=C(O)C(C(=O)OC)C(C)(C)CC2=O)C(=O)CC1(C)C (configuration not stated) the results were PrP UTR inh -16, ugtP null kill 8, Sa RN4220 lethal 6.3, BJeLR viability -10, Autofluor counter 3017, Mtb hypoxia rep 13 and Mtb hypoxia rep growth 11.
For CCNC(=O)COc1ccc(C=NNC(=O)c2cccnc2)cc1OC the results were ugtP null kill 6, Sa RN4220 lethal 2.6, Mtb hypoxia rep -3 and Mtb hypoxia rep growth 6.
`CCCN(CCC)C1CCc2cccc(O)c2C1` (configuration not stated) gave PrP UTR inh -13, ugtP null kill 1&2, Sa RN4220 lethal 4.4&4.2, BJeLR viability 10, Autofluor counter 5876, Mtb hypoxia rep 7&7 and Mtb hypoxia rep growth 12&12.
`COC(=O)C1=CN(C)C=C(C(=O)OC)C1c1ccsc1` gave PrP UTR inh 8, ugtP null kill -1, Sa RN4220 lethal 2.0, BJeLR viability 14, Autofluor counter inconclusive, Mtb hypoxia rep 6 and Mtb hypoxia rep growth 3.
`O=C(c1ccc(Cl)cc1)N1CCN(c2ccnc3cc(Cl)ccc23)CC1` gave PrP UTR inh -21, ugtP null kill 16, Sa RN4220 lethal 4.0, BJeLR viability 0, Autofluor counter 4162, Mtb hypoxia rep 5 and Mtb hypoxia rep growth 16.
For Cc1ccc(C(=O)NC(=S)Nc2ccccc2C(F)(F)F)cc1 the results were PrP UTR inh -9, ugtP null kill 33, Sa RN4220 lethal 2.0, BJeLR viability 0, Autofluor counter 3305, Mtb hypoxia rep 1 and Mtb hypoxia rep growth 9.
Screening COc1cccc(-n2nnnc2SCC(=O)NC2CCCCC2)c1 returned PrP UTR inh -33, ugtP null kill 2, Sa RN4220 lethal 2.2, BJeLR viability 2, Autofluor counter 5594, Mtb hypoxia rep 6 and Mtb hypoxia rep growth 2.
COc1cccc(/C=C/C2=CC(C)(C)NC(=S)N2)c1 was read as PrP UTR inh -17, ugtP null kill 10, Sa RN4220 lethal 5.4, BJeLR viability -7, Autofluor counter 4173, Mtb hypoxia rep 1 and Mtb hypoxia rep growth -1.
Screening COc1ccc(-n2nnnc2-c2cccnc2)cc1 returned PrP UTR inh -6, ugtP null kill 8, Sa RN4220 lethal 0.9, BJeLR viability -14 and Autofluor counter 2282.
For CCOCCCNC(=O)c1ccc(Cn2c(=O)[nH]c3ccsc3c2=O)cc1 the results were PrP UTR inh -24, ugtP null kill 2, Sa RN4220 lethal 3.5, BJeLR viability -3, Autofluor counter 5144, Mtb hypoxia rep 7 and Mtb hypoxia rep growth 9.
COc1ccccc1NS(=O)(=O)c1cccc(C(=O)NCC(C)(C)N2CCOCC2)c1 was read as PrP UTR inh -5, ugtP null kill 6, Sa RN4220 lethal 4.2, BJeLR viability 1, Autofluor counter 5768, Mtb hypoxia rep -2 and Mtb hypoxia rep growth 2.
`Cc1ccccc1NC(=O)OCCN1CCN(Cc2ccccc2)CCC1=O` gave PrP UTR inh -6, ugtP null kill -3, Sa RN4220 lethal 2.9, BJeLR viability -5, Autofluor counter 4137, Mtb hypoxia rep -3 and Mtb hypoxia rep growth 5.
`CCN(C(=O)COC(=O)c1ccccc1Cc1ccccc1)C1CCS(=O)(=O)C1` (configuration not stated) gave PrP UTR inh -13, ugtP null kill 0, Sa RN4220 lethal 5.9, BJeLR viability -3, Autofluor counter 7862, Mtb hypoxia rep 10 and Mtb hypoxia rep growth -5.
For O=C(Nc1nc(-c2ccc(S(=O)(=O)N3CCCC3)cc2)cs1)c1cccs1 the results were PrP UTR inh 9, ugtP null kill -23, Sa RN4220 lethal -7.5 and Autofluor counter 2705.
COCCNC(=O)CN(C(=O)CCC(=O)Nc1ccccn1)c1ccccc1F was read as PrP UTR inh -41, ugtP null kill -2, Sa RN4220 lethal 6.5, BJeLR viability 1, Autofluor counter 4420, Mtb hypoxia rep 9 and Mtb hypoxia rep growth 2.
